LT uptake inh – anthrax lethal toxin internalization inhibition. Cells, anthrax lethal toxin internalization, FRET ratio (460/530). Potency, µM (top dose mostly 40 µM), for inactives: at the highest dose activity change, negative = inhibition, usual class: inhibitors. actives 0.67% (n = 70,000). AID 912; active = well fitted falling ratio curve with the 530 nm signal flat; inconclusive = other ratio curves, or a change in one channel alone; inactive = flat curves in the ratio and both channels; the % refers to the ratio; also: % is scaled to controls: 0 for no effect and ±100 for the full control effect; nearly all actives have a fitted effect of over 50% in size; tested in ME-180 cells; beta-lactamase reporter
SmPrx2 inh – Schistosoma mansoni Prx2 inhibition | S. mansoni Prx2 activity coupled to TGR/GSH (TGR is thioredoxin glutathione reductase), NADPH fluorescence loss, qHTS; some inactives read as strong as hits | Potency, µM | actives 0.07% (n = 65,000) | AID 448; active means full or partial inhibition curve with a strong effect at the top dose; inconclusive means weaker partial or single-point curve; inactive means no accepted curve; also: series up to 57 µM; many of its hits are not listed in these tables
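Prx2 activity was followed as the loss of NADPH fluorescence (ex 365/em 450 nm), read every 30 sec for 8 min after H2O2 start. The enzyme mix (50 nM Prx2, 25 nM TGR, GSH, NADPH; pH 7.4 phosphate buffer) was incubated with compound for 15 min at room temperature first.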
Starred values were filed as active, the others as inactive; ? = inconclusive; . = no result given; [ ] = another dose, or the depositor's remark. Potency is read from the fitted curve at half-maximal effect. This is a subset. The share of hits here may be higher or lower than overall.

Every second line gives: LT uptake inh, SmPrx2 inh
O=C(O)c1cc(-c2cccs2)nc2cc3c(cc12)OCCO3
    17%, .
CCN(CC(=O)Nc1ccc2c(c1)OCCO2)c1nc(-c2cccnc2)nc2ccccc12
    -2%, >57
c1ccc2[nH]cnc2c1
    -16%, .
COC(=O)[C@@]1(Cc2ccccc2)[C@H]2c3cc(C(=O)N4CCCC4)n(Cc4ccccc4)c3C[C@H]2CN1C(=O)c1ccccc1
    -14%, >57
CCOC(=O)CSC(CC)C(=O)Nc1nnc(CC)s1 (stereo not given)
    -1%, >57
Cc1ccc(-n2ncc3c(NCc4ccco4)ncnc32)c(C)c1
    -10%, >57
CCOC(=O)N1CCN(S(=O)(=O)c2ccc(OCC(=O)OC)c(C)c2)CC1
    13%, >57
OCCN1CCN(C(c2cccs2)c2ccc3cccnc3c2O)CC1 (stereo not given)
    ?, >57
CCN(CC)CCCNC(=O)c1cn(C)c2ccc(S(=O)(=O)N(C)C)cc2c1=O
    7%, >57
CCOC(=O)N1CCC2(CC1)C(C#N)=C(N)Oc1c2c(C)nn1-c1cccc(Cl)c1
    9%, >57
O=C(O)CCC(NS(=O)(=O)c1ccc(-c2ccccc2)cc1)C(=O)O (stereo not given)
    -1%, >57
CCOC(=O)C(CC)n1cnc2c(nnn2-c2ccc(C)cc2)c1=O (stereo not given)
    -21%, >57
CCOC(=O)N1CCN(CC(=O)Nc2ccc(OC)cc2)CC1
    -8%, >57
CN(C(=O)c1ccncc1)c1ccccc1
    4%[8 µM], >57
Cc1nc2ccccc2nc1N1CCC(C)CC1
    ., >57
Cc1cccc(-n2c(CCCN3C(=O)c4ccccc4C3=O)nc3ccccc3c2=O)n1
    -4%, >57
Cc1ccc(NC(=O)c2oc3ccc(S(=O)(=O)N4CCOCC4)cc3c2C)cc1C
    ., >57
C[N+](C)(C)c1cc2c(nn1)Nc1ccccc1S2
    -2%[8 µM], ?
C#CCCCO/N=C1/C[C@@H](O)[C@@H](O)[C@@H]2[C@@H]3C(=O)N(c4cccc(Oc5ccccc5)c4)C(=O)[C@H]3CC[C@@H]12
    -4%[8 µM], .
CCN(Cc1ccccc1)C(=O)CSc1nc(C)cc2c1C(=O)OC2
    -1%, >57

More structures:
Every second line gives: LT uptake inh, SmPrx2 inh
CCOC(=O)CSC(CC)C(=O)Nc1nnc(C(C)C)s1 (stereo not given)
    4%, >57
Cc1ccc(S(=O)(=O)N2CCCC2C(=O)Nc2nc3c(s2)CCCC3)cc1 (stereo not given)
    -23%, >57
CCOc1ccc(OCC)c(NC(=O)CSc2nc3c(c(=O)n(C)c(=O)n3C)n2C(C)C)c1
    -16%, >57
O=C(Nc1cccc(OC(=O)c2ccco2)c1)c1ccco1
    ., >57
CC(=O)Nc1cc2c(cc1C(=O)c1ccccc1)OCCO2
    25%, >57
CCCCCCCCCCCCCC(=O)O
    ?, .
Cc1cc(Cl)ccc1OCC(=O)N1C(C)CCCC1C (stereo not given)
    -12%, >57
N#CC1=C(SCC(=O)NC23CC4CC(CC(C4)C2)C3)NC(=O)C(C#N)C12CCCCC2 (stereo not given)
    ?, >57
COc1ccc(CN2CCN(C(=O)c3cccs3)CC2)c(OC)c1OC
    -5%, .
CC(C)(C)NC(=O)Cn1ccc(=N)c2ccccc21
    ?, >57
O=C(C1CCN(C2CC(=O)N(c3ccc(Cl)cc3)C2=O)CC1)N1CCOCC1 (stereo not given)
    -4%, >57
CCn1c(C(C)NC(=O)c2cccc(C)c2)nc2ccccc21 (stereo not given)
    1%, >57
CN(Cc1ccco1)C(=O)c1ccc(N2CCCC2=O)cc1
    ?, >57
OCc1ccnc2c(O)cccc12
    -4%, .
Cc1cc(N2CCC3(CC2)OCCO3)n2nc(C)c(-c3ccc(Cl)cc3)c2n1
    19%, >57
CC(C)Cc1n[nH]c(=O)[nH]1
    ?, >57
O=c1cc(-c2ccccc2)nc2nc(-c3ccccc3)[nH]n12
    0%, >57
CCn1c(CNc2ccc(F)cc2)nnc1SCC(=O)Nc1ccc(OC)cc1OC
    -8%, >57
Cc1cccc(OCC(=O)Nc2ccc(N3CCN(S(C)(=O)=O)CC3)cc2)c1C
    3%, >57
O=C(CSc1nnc(CCCO)n1-c1ccccc1)Nc1nccs1
    -10%, >57

More entries follow:
Every second line gives: LT uptake inh, SmPrx2 inh
O=C(CNC(=O)C1CCCCC1)NC1=NCCS1
    8%, >57
COc1ccccc1Cn1c(=O)c2ccccc2n2c(SCc3csc(C)n3)nnc12
    4%, .
CCC(=O)Nc1ccc(-c2nc(-c3ccccc3)n(CC(=O)N3CCCCC3)n2)cc1
    1%, >57
CCCCn1c(SCC(=O)Nc2cccc(OC)c2)nc2ccc(N3CCOCC3)cc2c1=O
    2%, >57
Cc1cc(-c2nnco2)c(C)n1-c1ccccc1
    -11%, >57
O=C(O)CC[C@@H](C(=O)O)N1C(=O)[C@@H]2[C@@H]3CC[C@H](C3)[C@@H]2C1=O
    ?, >57
Cc1cc2cc(CNC(=O)c3ccc4c(c3)OCO4)ccc2n1C
    -8%, >57
Cn1cc(-c2nc3ccccc3[nH]2)c2ccccc21
    3%, >57
O=C(CCCSc1nc(-c2ccco2)cc(C(F)(F)F)n1)NCc1cccs1
    ?, >57
COc1ccccc1NC(=O)Nc1ccc(Br)cn1
    -15%, >57
CCC(CC)C(=O)Nc1nnc(SCC(=O)N2CCN(c3ccccc3OC)CC2)s1
    ?, >57
CCNc1nc(Oc2ccc(=O)n(C)n2)nc(N2CCOCC2)n1
    -4%, >57
O=C(Nc1ccc(Cl)cc1)N(Cc1nnc2n1CCCCC2)c1ccccc1
    -20%, >57
CC(=O)Nc1ccc(-c2cc(C(=O)O)c3cc4ccccc4cc3n2)cc1
    ?, >57
O=C(NCc1ccc2c(c1)OCO2)c1cccc(N2CCCC2=O)c1
    21%, >57
COc1ccc(-c2noc(C3CCCN(C(=O)c4ccccc4OC)C3)n2)cc1OC (stereo not given)
    0%, >57
CCN(CCNC(=O)Cn1cc2c(n1)CCCC2)c1ccccc1
    1%, >57
CCN1C(=O)CC(N2CCC(Cc3ccccc3)CC2)C1=O (stereo not given)
    0%, >57
COCc1nnc(NC(=O)c2ccc(S(=O)(=O)N3CCCCCC3)cc2)o1
    7%, >57
Cc1ccc(Cl)cc1N1CCN(C(c2cccnc2)c2nnnn2C2CCCCC2)CC1 (stereo not given)
    7%, >57

Further structures follow:
smiles	LT uptake inh	SmPrx2 inh
N#CCCn1c(=O)c(-c2cccc(C#N)c2)nc2cnc(Oc3ccccc3)nc21	0%	>57
c1ccc(CNc2ccnc(-c3ccc4c(c3)OCO4)n2)cc1	-17%	>57
O=C(CN1C(=O)NC(Cc2ccccc2)C1=O)NC(=O)NC1CCCCC1 (stereo not given)	14%	>57
Cc1ccc(S(=O)(=O)Cn2nnnc2C(C(C)C)N2CCc3ccccc3C2)cc1 (stereo not given)	?	>57
CCOC(=O)C1=C(C)Nc2nc3ccccc3n2C1c1ccncc1 (stereo not given)	22%	>57
N#Cc1cccc(NC(=O)N2CCCC3(CCN(C(=O)c4cnccn4)CC3)C2)c1	6%	>57
Cc1ccccc1OCC(=O)Nc1ccccc1N1CCOCC1	?	>57
CC(C)C(C(=O)Nc1ccc(N2CCOCC2)cc1)N1C(=O)c2ccccc2C1=O (stereo not given)	-3%	>57
COc1ccc(OC)c(NC(=O)CSc2nnnn2-c2ccc3c(c2)OCO3)c1	-26%	>57
Cc1ccc2cc(C(c3nnnn3CC3CCCO3)N3CCc4ccccc4C3)c(=O)[nH]c2c1 (stereo not given)	?	>57
Cn1ccc(O)c(C#N)c1=O	-18%	>57
CN(C)c1nc2c(c(=O)[nH]c(=O)n2C)n1Cc1ccc(F)cc1	?	>57
CCOC(=O)c1c(C)[nH]c(C)c1C(=O)CSc1nnc(-c2cc(OC)c(OC)c(OC)c2)o1	-3%	>57
C=CC[C@@H]1C=C[C@@H](O/N=C(/C)CCC(=O)OC[C@@H]2O[C@H](C#Cc3ccccc3)C=C[C@@H]2Oc2ccc(C)cc2)[C@@H](CO)O1	-6%[1.6 µM]	.
O=C(NC1CCSC1=O)c1cccc(C(=O)NC2CCSC2=O)c1 (stereo not given)	-1%	>57
CN(C(=O)c1ccccc1C(=O)O)C1CC(C)(C)NC(C)(C)C1	-12%	>57
O=C1CCCN1CCC1CCN(C2CC(=O)N(c3ccc(Cl)cc3)C2=O)CC1 (stereo not given)	-3%	>57
COc1cc(-n2nc(C)c3c2OC(N)=C(C#N)C3c2ccccc2)c(Cl)c(Br)c1O (stereo not given)	?	>57
CN(C)c1ccc2nc3c(C(=O)O)cc(=O)c(O)c-3oc2c1	-10%[8 µM]	>57
O=C(COc1ccccc1)OCc1cc2ccccc2[nH]c1=O	?	>57

In the list so far, 7 contain a COOH group:
smiles	LT uptake inh	SmPrx2 inh
O=C(O)c1cc(-c2cccs2)nc2cc3c(cc12)OCCO3	17%	.
O=C(O)CCC(NS(=O)(=O)c1ccc(-c2ccccc2)cc1)C(=O)O (stereo not given)	-1%	>57
CCCCCCCCCCCCCC(=O)O	?	.
O=C(O)CC[C@@H](C(=O)O)N1C(=O)[C@@H]2[C@@H]3CC[C@H](C3)[C@@H]2C1=O	?	>57
CC(=O)Nc1ccc(-c2cc(C(=O)O)c3cc4ccccc4cc3n2)cc1	?	>57
CN(C(=O)c1ccccc1C(=O)O)C1CC(C)(C)NC(C)(C)C1	-12%	>57
CN(C)c1ccc2nc3c(C(=O)O)cc(=O)c(O)c-3oc2c1	-10%[8 µM]	>57

The list continues.
smiles	LT uptake inh	SmPrx2 inh
Cc1cc(C)c2[nH]c(=O)c(CN(Cc3nnnn3C3CCCC3)C3CCCCC3)cc2c1	-4%	>57
O=C(Nc1cccc2ccccc12)OC1C=CS(=O)(=O)C1 (stereo not given)	?	>57
COc1ccc(C2c3c(oc4ccccc4c3=O)C(=O)N2CCN2CCOCC2)cc1OC (stereo not given)	.	>57
COC(=O)/C=C/S(=O)(=O)c1ccc(NC(C)=O)cc1	?	.
CCNC(=O)Cn1cnc2c1c(=O)n(C)c(=O)n2C	6%	>57
O=C(Nc1nnc(SCc2ccccc2)s1)c1cccs1	16%	>57
CC(C)OC(=O)c1c(NC(=O)CCn2nnc3ccccc32)sc2c1CCCC2	-20%	>57
COc1ccc(C(=O)NCC(=O)OCC(=O)NC(=O)NC2CCCCC2)cc1OC	7%	>57
CC(C)Cn1c(=O)c2c(c3ccccc31)OC(C)C(=O)N2 (stereo not given)	-15%	>57
O=CN(Cc1ccco1)C1(C(=O)NC2CCCCC2)CCCCC1	?	>57
CC(=O)NC1(C(F)(F)F)NC(=O)N(CC(C)C)C1=O (stereo not given)	12%	>57
COCCN1C(=O)c2ccc(C(=O)NCc3cccnc3)cc2C1=O	-6%	>57
Cc1nc2ccccc2c2oc(C(=O)N3CCN(C(=O)c4ccco4)CC3)cc12	8%	>57
COc1cc(O)c2c(c1)OC(C)(C)CC2=O	3%	>57
O=C1CC(C(=O)N2CCOCC2)C2(CCCC2)O1 (stereo not given)	-15%	>57
COc1ccc(-n2nnnc2SCC(=O)Nc2cccc(C)n2)cc1OC	0%	>57
COCCNc1ccnc(-c2ccccc2CN(C)C)n1	-15%	>57
CCN(CC)S(=O)(=O)c1ccc(S(=O)(=O)Nc2cc3c(cc2C(C)=O)OCO3)cc1	-2%	>57
CCCCN(CCCNc1ncnc2nc[nH]c12)c1ccccc1	?	>57
C/C(C=O)=C/c1ccccc1	0%	.

Next section:
smiles	LT uptake inh	SmPrx2 inh
COC(=O)c1ccc(C)c(NC(=O)c2c(-c3ccccc3)noc2C)c1	1%	>57
c1coc(CNc2nc3sc4c(c3c3ncnn23)CCCC4)c1	.	>57
COc1ccc(NC(=O)c2cc(C3CC3)on2)c(OC)c1	-8%	>57
O=C(Cc1cccs1)N1CCN(C(=O)C2CCCO2)CC1 (stereo not given)	.	>57
CC(=O)N1CSCC1C(=O)O (stereo not given)	-4%	>57
Cc1ccc2c(c1)NCC(C(=O)NC1CCCCC1)O2 (stereo not given)	-12%	>57
OC(COCC1CC=CCC1)Cn1cnc2ccccc21 (stereo not given)	-12%	>57
CCS(=O)(=O)NCc1csc(-c2ccccc2)n1	3%	>57
COc1cccc(Cn2nnc(C(=O)NCc3ccccc3Cl)c2N)c1	?	.
CCCn1c(NCc2cccc(OC)c2O)nc2ccccc21	5%	>57
Cc1c(NC(=O)c2cnn3c2NC(c2ccco2)CC3C(F)(F)F)c(=O)n(-c2ccccc2)n1C (stereo not given)	-5%	.
CC1(C)CC(=O)C2=C(C1)Nc1ccccc1NC2c1cccnc1 (stereo not given)	-4%	?
COc1ccc(C2CC(c3cc(Br)ccc3F)n3nnnc3N2)cc1 (stereo not given)	-4%	>57
CC(C)C1N(c2ccccc2)C(N)=C(C#N)C1(C#N)C#N (stereo not given)	2%	>57
CCOC(=O)N1CCN(C(=O)c2oc3ccc(S(=O)(=O)N4CCCCC4)cc3c2C)CC1	?	>57
CCC1(CC)NC(=O)N(CC(=O)OCC(=O)Nc2cc(C)ccc2C)C1=O	-4%	>57
O=C(c1ccco1)N1CCN(c2c(-c3ccccc3)c3cc(Cl)ccc3[nH]c2=O)CC1	?	>57
CSc1cccc(NC(=O)Cn2cccc2)c1	-1%	>57
